Ab BasE inh – inhibitors of Acinetobacter baumannii siderophore enzyme BasE; purified BasE, fluorescence polarization binding displacement; inhibition, % (no concentration beside the values); hit rate 0.1% among 84,000;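 active = both replicates above 25% with normal brightness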;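 note: 0% = negative plate control signal and 100% = positive plate control signal; stock transfer was 100 nL into about 30 µL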
KSHV LANA nucl – inhibitors of KSHV LANA binding to nucleosomes | hit rate 0.3% among 51,000 | z-score (concentration not given with the values) | FITC-LANA1-23 / chicken nucleosome fluorescence polarization; active compounds read low;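 active = both repeat wells score below -2 in polarization z-score versus plate sample wells, excluding overly bright wells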;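 note: 100 nL library stock added to about 30 µL; numbers are from one replicate; some results filed as inactive read as strong as hits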
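Material: Purified chicken nucleosomes with FITC-labelled LANA N-terminal peptide (1-23) | Reagent: 50 nM FITC-LANA1-23 probe | Medium: TEN-BT buffer, pH 7.5 | Times: 10–45 min incubation at room temperature | Detection: Fluorescence polarization | Replication: Duplicates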
The depositor's hits bear a star; nt = not tested or not shown; & = joins results of further samples. A portion of the library; count on the stated rates, not on these rows.

SMILES | Ab BasE inh | KSHV LANA nucl
CCC(C)NC(=O)Cn1c(=O)/c(=C\c2ccc(F)cc2)s/c1=C\C(=O)c1ccco1 (stereo unspecified) | 4.4 | nt
O=C(NC1=NCCS1)c1ccc2c(c1)C(=O)N(Cc1ccncc1)C2=O | 12.8 | nt
CC1(c2ccccc2)NC(=O)N(CC(O)c2ccccc2)C1=O (stereo unspecified) | -0.1 | nt
CCN1CCN(Cc2c(O)ccc3ccccc23)CC1 | 2.0 | nt
Cc1ccc(C)c2[nH]c(=O)c(C3NC(=O)c4ccccc4N3)cc12 (stereo unspecified) | 1.4 | 0.152
COc1cc2c(cc1OC)C1=C(C#N)CCC(=O)N1CC2 | 1.8 | nt
Cc1cc(=O)n2c([nH]c3ccccc32)c1C(=O)O | 0.9 | -0.82
CCOC(=O)c1cnn(-c2nc(-n3ncc(C(=O)OCC)c3N)c3c4c(sc3n2)COC(C)(C)C4)c1N | 1.7 | 0.0305
Cc1noc(C)c1/C=N/NC(=S)Nc1ccc(SC(F)F)cc1 | 1.9 | nt
CC(Sc1ccccc1)C(=O)O (stereo unspecified) | 2.1 | nt
c1ccc2c(CSc3nnc(-c4ccc5c(c4)OCO5)o3)cccc2c1 | 2.6 | nt
O=S(c1cccc(C(F)(F)F)c1)c1ccc2nnc(Cl)n2n1 (stereo unspecified) | nt | -1.21
COc1ccc(OC)c(NC(=O)CCN2CCN(c3ccccc3F)CC2)c1 | 1.7 | -1.47
O=C(Cc1cccc2ccccc12)Nc1ccc(I)cc1 | 0.8 | nt
Cc1sc2c(c1C)C(O)=C(C(=O)Nc1ccc(Cl)cc1)S(=O)(=O)N2C | 0.6 | nt
NCC1CC2C=CC1C2 (stereo unspecified) | 2.9 | 0.099
CCOC(=O)c1c(/N=C/C2C(=O)NC(=O)NC2=O)sc2c1CCCCC2 | -15.7 | 0.396
C/C(=N\OCC(=O)Nc1ccc2c(c1)OCO2)c1cc2ccccc2o1 | 2.3 | nt
Nc1ncc2c(n1)CC(c1ccco1)CC2=O (stereo unspecified) | -0.3 | -0.07
O=C(O)C1=CSCCO1 | -0.2 | 1.34
NNC(=O)c1csc(COc2ccccc2Cl)n1 | -0.9 | -0.584
COC(=O)Cc1coc2cc(C)c(Cl)cc12 | 4.0 | 0.0695
CC(=O)N1CCN(C(=O)C2C3CC4CC(C3)CC2C4)CC1 (stereo unspecified) | 3.8 | nt
Cc1cc(C)nc(-n2ncc3c2CCCC3=O)n1 | 0.3 | -0.691
N#C/C(=C\c1ccsc1)S(=O)(=O)c1ccc(C(F)(F)F)cn1 | 0.8 | nt
O=C(CN1C(=O)C2CC=CCC2C1=O)Nc1ccccc1C(=O)Nc1ccccc1 (stereo unspecified) | 1.6 | nt
N=c1nc(-c2ccccc2)ccn1O | 1.8 | nt
O=C(Nc1cc(C(F)(F)F)ccc1N1CCc2ccccc2C1)c1ccccc1 | -1.5 | nt
Cc1ccc(C(=O)c2cnc3cc4c(cc3c2N2CCCCC2)OCO4)cc1 | 7.4 | 0.167
CC(C)(C)NC(=O)C1=CC=CN2CCS(=O)(=O)N=C12 | -1.6 | nt
Cc1nn(-c2cccc(Cl)c2)nc1C(=O)N1CCN(C(=O)C2CC2)CC1 | 0.7 | nt
CN(Cc1cn(-c2ccccc2)nc1-c1ccc(F)cc1)C(=O)CCC(=O)O | 0.6 | nt
COc1ccc(OC)c(C2C(C(=O)Nc3ccccn3)=C(C)NC3=C2C(=O)CCC3)c1 (stereo unspecified) | 1.5 | nt
O=C(Nc1ccc(-c2cn3ccsc3n2)cc1)C1CCCC1 | -2.2 | nt
CCOC(=O)c1ccc2[nH]cc(C(=O)OCC)c(=O)c2c1 | 1.9 | -0.0595
O=C(CSc1nnc(Cc2ccccc2)o1)NCc1ccco1 | 0.1 | nt
O=c1cc(CNc2cccc(F)c2)nc2ccc(Br)cn12 | -0.7 | nt
COc1ccc(C2=NN(CC(=O)NCC(OC)OC)C(=O)CC2)cc1 | -0.7 | 0.891
COC(=O)C1C(O)=C(C=Nc2ccccc2)C(=O)CC1(C)C (stereo unspecified) | -2.3 | 2.19
CS(=O)(=NC(=O)Nc1ccccc1)c1cccs1 (stereo unspecified) | 3.2 | -0.236
O=c1[nH]c2ccccc2c(=O)n1/N=C/c1cc(Cl)cc(Cl)c1O | 1.6 | nt
Cn1c(-c2ccc3ccccc3n2)[n+](C)c2ccccc21 | 2.7 | nt
Cc1onc(-c2ccccc2)c1-c1ccnn1S(=O)(=O)c1ccc(Cl)cc1 | 1.3 | nt
Cc1cc(OCC(=O)NC(C)(C)C)cc(C)c1Cl | -2.1 | 0.185
COC(=O)/C=C1\NC(=O)CS1 | -5.0 | nt
CC(C)NC(=O)NC1C2CC3CC(C2)CC1C3 (stereo unspecified) | -0.8 | 1.52
O=C(c1ccco1)N1CCN(C(=O)C2CCCN(c3nnc(-n4cccc4)s3)C2)CC1 (stereo unspecified) | 0.8 | nt
N#CCN(CC#N)C(=O)c1cc(-c2ccccc2)nc2ccccc12 | -2.9 | 0.303
CC(=O)O[C@H]1C(=O)[C@@]2(C)C([C@H](OC(=O)c3ccccc3)[C@]3(O)C[C@H](OC(=O)[C@H](O)[C@@H](NC(=O)c4ccccc4)c4ccccc4)C(C)=C1C3(C)C)[C@]1(OC(C)=O)CO[C@@H]1C[C@@H]2O (stereo partly specified) | 2.4&-1.7 | -0.598&0.76&-0.4
O=C(NNc1c(Cl)cc(Cl)cc1Cl)c1ccc(=O)[nH]n1 | 0.8 | nt
CC1CCC(C(C)C)C(=O)/C1=C/c1ccc(N)cc1 (stereo unspecified) | 0.9 | nt
COc1cccc2cc(C(=O)Nc3cccc(Cn4cccn4)c3)c(=O)oc12 | 3.0 | 0.882
COc1ccccc1OCc1nnc(SCCN2CCOCC2)o1 | 0.4 | -0.187
O=C(/C=C/c1ccccc1)Nc1nnc(-c2ccco2)o1 | -1.4 | 2.4
O=C(CSc1nnc(COc2ccccc2Cl)o1)NC(=O)NC1CCCC1 | -1.0 | nt
N#Cc1cc2sc3nc4ccccc4n3c2cc1C#N | 0.7 | -0.458
Cc1ccc(NC(=O)NC(C)c2c(-n3cccc3)sc(C)c2C)cc1 (stereo unspecified) | 1.4 | -1.1
CSC1=N/C(=C\c2ccc(Cl)cc2)C(=O)N1CCc1c[nH]c2ccccc12 | -2.1 | nt
O=C(Nc1ccccc1)Nc1ccc(Oc2cccnc2)nc1 | 1.1 | 0.175
Cc1oc(-c2ccccc2)nc1C(=O)Nc1ccccc1C(=O)Nc1ccc2c(c1)OCO2 | -0.8 | nt
New compounds follow
SMILES | Ab BasE inh | KSHV LANA nucl
CN1C(=O)/C(=C\c2ccc(C(=O)N3CCC4(CC3)OCCO4)cc2)SC1=S | 0.0 | 1.16
O=S(=O)(c1ccc(Oc2ccc(-c3nnco3)cc2)nc1)N1CCC(Cc2ccccc2)CC1 | 1.6 | nt
O=C(NC1CC1)c1c(Cl)cccc1Cl | 2.0 | -0.201
CCCn1c(=O)c2ccccc2n2c(SCC(=O)NC(=O)NC)nnc12 | 0.1 | nt
Cc1nnc(SCC(=O)N2CCC(C)CC2)c2nn(-c3ccccc3)c(C)c12 | 0.3 | nt
Cc1ccc(C(C(=O)NCc2ccccc2)N(C(=O)c2snc(C(N)=O)c2N)c2ccc3c(c2)OCCO3)o1 (stereo unspecified) | -0.5 | -0.742
Cc1cccn2c(=O)c(/C=C(\C#N)C(=O)NCCc3ccccc3)c(NCCOCCO)nc12 | -5.4 | 1.58
Cc1cccc(OC(C)c2nc3ccccc3[nH]2)c1 (stereo unspecified) | -0.2 | -0.397
CCc1ccc(NS(=O)(=O)c2ccc(-n3cccn3)cc2)cc1 | -1.7 | -0.107
CCC1CN(C(=O)Nc2ccc(OC)cc2)c2ccccc2S1 (stereo unspecified) | -1.4 | 0.0615
CCOC(=O)c1cn(CC2CC2)c2cc(F)c(F)cc2c1=O | 0.2 | -1.1
O=c1c2cnn(CCO)c2ncn1Cc1cccc2ccccc12 | -5.1 | 1.13
CCN(CC)S(=O)(=O)c1ccc(NC(=O)c2ccccc2)cc1 | -1.6 | -0.94
CC(C)Sc1nc2ccccc2n1CN1CCN(c2ccccn2)CC1 | 0.1 | nt
CN1CCN(Cc2nc(/C=C/c3cc(C(F)(F)F)cc(C(F)(F)F)c3)no2)CC1 | nt | 0.106
O=C(COC(=O)c1n[nH]c2ccccc12)NCC1CCCCC1 | -2.6 | nt
CN(Cc1ccc(Cl)c(Cl)c1)c1ccc(S(N)(=O)=O)cn1 | -4.7 | nt
CN=C1SC(CC(=O)Nc2ccccc2F)C(=O)N1/N=C/c1ccc(O)c(OC)c1 (stereo unspecified) | 2.5 | nt
O=C(OCc1ccc2ccccc2c1)c1ccco1 | -1.1 | -1.63
CC(C)CC1(C)NC(=O)N(CC(=O)c2ccc(Cl)s2)C1=O (stereo unspecified) | -3.8 | nt
O=C(c1cc2c(s1)-c1ccccc1OC2)N(Cc1ccco1)C1CCCCC1 | -0.3 | -0.63
O=C(CSc1ncccc1C(=O)OCCN1C(=O)c2ccccc2C1=O)Nc1ccc2c(c1)OCO2 | 4.2 | nt
CC1CCc2[nH]c3ccc(C(=O)O)cc3c2C1 (stereo unspecified) | 0.7 | nt
O=C(Nc1cnn(C23CC4CC(CC(C4)C2)C3)c1)c1cc(-c2ccccc2)on1 | 3.4 | -0.237
COCCOC(=O)C1=C(C)NC(C)=C(C(=O)OC/C=C/c2ccccc2)C1c1cccc([N+](=O)[O-])c1 (stereo unspecified) | nt | -0.0305
CCC[N+]1(C)CCC2C(C1)c1ccccc1N2Cc1ccccc1 (stereo unspecified) | 0.1 | nt
COc1ccc(N=Cc2ccc(N(C)CCC#N)cc2)cc1 | -0.9 | nt
CCn1c2ccccc2c2cc(C#N)ccc21 | 2.6 | -0.048
N#Cc1ccc(NC(=O)CCCc2ccccc2)cc1 | -3.2 | 0.311
O=C(NCc1ccncc1)C1CCN(C(=O)c2cccc(Cl)c2)CC1 | -0.9 | 0.832
COc1ccccc1N1CCN(C(=O)c2ccc(Cl)cc2)CC1 | 1.6 | 0.113
CC(=O)Oc1ccc(-c2nc3ccccc3s2)cc1 | 1.2 | -0.42
CC1CCCC(C)N1C(=O)c1cccc2c1-c1ccccc1C2=O (stereo unspecified) | 3.5 | 0.861
C=CCn1c(C)cc(C(=O)COC(=O)c2cncc(Br)c2)c1C | -1.6 | nt
COCc1c(C(=O)OCCCCN2C(=O)c3ccccc3C2=O)oc2ccccc12 | -0.1 | nt
C=CCn1c(N)c(C(=O)NCc2ccccc2)sc1=S | 2.4 | nt
CC1CCc2c(sc(NC(=O)CSc3nnc4n3CCCCC4)c2C(N)=O)C1 (stereo unspecified) | -1.4 | nt
CCOc1ccc(NC2=NC(C(=O)Nc3ccccc3)CC(=O)N2)cc1 (stereo unspecified) | -2.4 | 2.86
CN1/C(=C\C(=O)CSc2nncn2-c2ccccc2)C(C)(C)c2ccccc21 | 0.8 | nt
O=S(=O)(CCS(=O)(=O)c1ccc(Cl)cc1)c1ccccc1 | 1.5 | 1.01
c1cnc(Oc2ccc(-n3cccc3)cc2)nc1 | nt | 0.508
O=C(CC1CCCC1)Nc1nc2ccccc2[nH]1 | 1.4 | nt
CC(C)Cn1cnc2c(N)nc3ccccc3c21 | nt | 0.247
C=C(C)C(=O)NC1=NN(c2ccccc2)C(=O)C1 | 2.9 | -0.552
N#Cc1ccccc1Cn1c(=O)c2c(ncn2Cc2ccccc2)n(Cc2ccccc2)c1=O | 4.2 | nt
N#C/C(=C(/O)CN1CCN(S(=O)(=O)c2ccc(Cl)cc2)CC1)c1nc2ccccc2[nH]1 | 0.9 | nt
Cc1cc(C(=O)Cn2c(CO)nc3ccccc32)c(C)n1C | 1.2 | nt
Cc1occc1C(=O)Nc1sccc1C(N)=O | 0.4 | -0.7
Cc1cc(-c2csc(CC#N)n2)c(C)n1C1CC1 | 1.3 | nt
N#Cc1ccc(OCC(=O)NCC2(N3CCCCC3)CCCCC2)cc1 | 1.1 | nt
CCc1nnc(NC(=O)[C@@H](NC(=O)c2cccc(S(=O)(=O)N(CC)CC)c2)C(C)C)s1 | 1.8 | nt
O=C(c1ccccc1)N(Cc1nnc(-c2ccc(Cl)cc2)o1)C1CC1 | 1.0 | nt
CCOC(=O)c1ccoc1CSc1nnc(Nc2ccc(C)cc2)s1 | -0.3 | nt
CCC(=O)Nc1ccc(-c2nc3ccc(OC(=O)CC)cc3c(=O)o2)cc1 | 2.0 | -0.152
O=C(NC(=S)Nc1ccccc1O)C1CCCCC1 | -0.3 | nt
CC(=O)Nc1ccc(/C=C(\C#N)C(=O)NC2CCCCC2)cc1 | -1.5 | nt

Structural class, those above with an aryl methoxy group.
SMILES | Ab BasE inh | KSHV LANA nucl
COc1cc2c(cc1OC)C1=C(C#N)CCC(=O)N1CC2 | 1.8 | nt
COc1ccc(OC)c(NC(=O)CCN2CCN(c3ccccc3F)CC2)c1 | 1.7 | -1.47
COc1ccc(OC)c(C2C(C(=O)Nc3ccccn3)=C(C)NC3=C2C(=O)CCC3)c1 (stereo unspecified) | 1.5 | nt
COc1ccc(C2=NN(CC(=O)NCC(OC)OC)C(=O)CC2)cc1 | -0.7 | 0.891
COc1cccc2cc(C(=O)Nc3cccc(Cn4cccn4)c3)c(=O)oc12 | 3.0 | 0.882
COc1ccccc1OCc1nnc(SCCN2CCOCC2)o1 | 0.4 | -0.187
CCC1CN(C(=O)Nc2ccc(OC)cc2)c2ccccc2S1 (stereo unspecified) | -1.4 | 0.0615
CN=C1SC(CC(=O)Nc2ccccc2F)C(=O)N1/N=C/c1ccc(O)c(OC)c1 (stereo unspecified) | 2.5 | nt
COc1ccc(N=Cc2ccc(N(C)CCC#N)cc2)cc1 | -0.9 | nt
COc1ccccc1N1CCN(C(=O)c2ccc(Cl)cc2)CC1 | 1.6 | 0.113
